From PubChem
VDR inh – vitamin D3 receptor (human) inhibition. P11473. VDR-SRC2-3 peptide fluorescence polarization, 2 h. Potency, µM, for the others: max response, negative = inhibition, hits mostly inhibitors. 0.93% of 400,000 active. AID 504847; active = well fitted inhibition curve with a large enough effect; inconclusive = small, poorly fitted or top-dose-only effect, or another doubt; inactive = no such curve, though single readings can be large or run the other way; note: series mostly up to about 120 µM
Target sequence (P11473 whole entry, looked up): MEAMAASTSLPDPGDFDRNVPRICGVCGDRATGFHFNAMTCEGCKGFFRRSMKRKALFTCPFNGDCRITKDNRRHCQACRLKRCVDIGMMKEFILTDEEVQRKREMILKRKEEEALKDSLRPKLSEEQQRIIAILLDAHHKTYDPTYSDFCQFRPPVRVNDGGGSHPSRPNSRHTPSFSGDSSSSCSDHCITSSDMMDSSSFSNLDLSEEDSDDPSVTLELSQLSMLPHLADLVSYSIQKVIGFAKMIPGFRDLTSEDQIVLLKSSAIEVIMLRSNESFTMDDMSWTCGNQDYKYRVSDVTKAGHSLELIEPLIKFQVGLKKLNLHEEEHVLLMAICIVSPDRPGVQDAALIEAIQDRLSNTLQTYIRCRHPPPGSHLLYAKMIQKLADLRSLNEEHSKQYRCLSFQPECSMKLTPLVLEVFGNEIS
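VDR–SRC2-3 interaction, FP format. Cmpds 23 nl via pintool, brief spin, 2 h ambient incubation.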
* marks the source's active call; other numbers are inactive results; ? = inconclusive; & = joins results of further samples; [ ] = remark or other dose. % is set by controls: 0 for no effect and ±100 for the full control effect; potency is the fitted concentration of half-maximal effect. An excerpt, so the mix of outcomes need not match the whole.

CCOc1ccc(NC(=S)Nc2ccc(F)cc2)cc1
  VDR inh: -22%

COC(=O)c1cccc(NC(=O)CSc2nnc(COc3ccc(C#N)cc3)n2-c2ccccc2)c1
  VDR inh: -21%

O=C1c2ccccc2C(=O)N1CC#CCN1CCN(C(c2ccccc2)c2ccccc2)CC1
  VDR inh: 0%

Cc1ccc(CCNC(=O)CCS(=O)(=O)c2cc3c(cc2Cl)NC(=O)CO3)cc1
  VDR inh: 17%

CC1CCN(C(=O)Cn2cc(SCc3cccc(F)c3)c3ccccc32)CC1
  VDR inh: 9%

CCOc1ccc(OCC)c(NC(=O)c2cc3ccccn3n2)c1
  VDR inh: 2%

COc1cc2nc(N(CCCN(C)C)C(=O)c3ccc(S(=O)(=O)N(C)C4CCCCC4)cc3)sc2cc1OC
  VDR inh: 3%

O=C(NCc1cccnc1)C1CCN(Cc2cc3ccccc3n2Cc2ccccc2)CC1
  VDR inh: 11%

Cc1cc(OCC(=O)OCC(=O)NCC2CCCO2)ccc1Cl (configuration not stated)
  VDR inh: -13%

Cc1ccc(C)c(CN2CCC(n3nccc3NC(=O)C3CCCC3)CC2)c1
  VDR inh: -8%

O=S(=O)(c1ccc(NC(=S)NCc2cccnc2)cc1)N1CCCCC1
  VDR inh: -24%

O=C(NC(Nc1ncc(S(=O)(=O)c2ccc([N+](=O)[O-])cc2)s1)(C(F)(F)F)C(F)(F)F)c1ccc(Cl)cc1
  VDR inh: -3%

Cc1ccc(C(=O)NCc2nc3ccccc3[nH]2)o1
  VDR inh: 7%

CN(C)c1ccc(/C=C2\SC(=O)N(CCc3nnc(N)s3)C2=O)cc1
  VDR inh: 16%

Clc1ccccc1-c1ccc2ncnc(N3CCNCC3)c2c1
  VDR inh: ?

CCOC(=O)c1cc(-c2ccc(C)cc2)n(CCC(=O)Nc2ccc(C(C)C)cc2)c1C
  VDR inh: 4%

ON(CCc1ccccn1)Cc1ccccc1
  VDR inh: -22%

CC(Sc1ccc2c(c1)OCCO2)C(=O)Nc1ccc(N2CCOCC2)cc1 (configuration not stated)
  VDR inh: ?

COc1ccc(N2CCN(c3ncccc3-c3nc(-c4ccccc4C)no3)CC2)cc1
  VDR inh: 16%

O=C(NC(=S)NCCN1CCOCC1)c1ccc(F)cc1
  VDR inh: 5%

NC(=O)CSc1nnc(COc2ccccc2)n1CCc1ccccc1
  VDR inh: -12%

Cc1cccc(N(CC(=O)Nc2cccc(Cl)c2C)S(C)(=O)=O)c1C
  VDR inh: -6%

CCNC(=S)N(CCc1c(C)[nH]c2ccccc12)Cc1cc(OC)c(OC)c(OC)c1
  VDR inh: -16%

COc1ccc(NC(=O)CN(C)C(=O)c2ccc3c(c2)S(=O)(=O)N=C2CCCCCN23)cc1
  VDR inh: -9%

CCOC(=O)N1CCN(c2c(NCc3ccc(N(C)C)cc3)c(=O)c2=O)CC1
  VDR inh: -17%

Cc1cc(C)n(-c2ccc(C(=O)N3CCC(CO)(Cc4ccccc4)CC3)cc2)n1
  VDR inh: -5%

COc1ccc(S(=O)(=O)NC(CC(=O)NCCc2ccc(OC)c(OC)c2)C(C)C)cc1 (configuration not stated)
  VDR inh: 5%

COCCNC(=O)C(=O)Nc1ccc2c(c1)N(S(=O)(=O)c1cccs1)CCC2
  VDR inh: 0%

O=C(CSc1nc(-c2ccco2)nc2cc(=O)[nH]n12)Nc1ccccc1Cl
  VDR inh: -3%

Cc1ccc(-c2cc(C(F)F)n3ncc(C(=O)Nc4ccc(S(=O)(=O)Nc5ccccc5C)cc4)c3n2)cc1
  VDR inh: 13%

COc1ccc2c(COC(=O)c3ccc(C)c(S(=O)(=O)N4CCOCC4)c3)cc(=O)oc2c1
  VDR inh: 6%

O=C(NNC(=O)c1ccccc1-n1cccc1)c1ccc(Cl)c(Cl)c1
  VDR inh: 1%

NNC(=O)c1nc(-c2ccccc2)n2c1CCCCC2
  VDR inh: -9%

CCSc1nc2c([nH]c3ccccc32)c(=O)n1-c1ccc(F)cc1
  VDR inh: -2%

C[N+]1(C)CCC(OC(=O)C(O)(c2ccccc2)C2CCCC2)C1 (configuration not stated)
  VDR inh: ?

CC(C)(C)c1cc(C(=O)N/N=C/c2ccco2)n[nH]1
  VDR inh: -14%

Cc1ccccc1NC(=O)Cn1nnc(S(=O)(=O)c2ccc(C(C)(C)C)cc2)c1N
  VDR inh: -24%

COc1ccc(OCC(=O)N2CCN(c3cccc(C(F)(F)F)c3)CC2)cc1
  VDR inh: 31%[activator]

CC1(C)CC(=O)C2=C(C1)N(CC1CCCO1)C(=O)C2(O)C(F)(F)F (configuration not stated)
  VDR inh: 17%

COc1ccc(N(Cc2cccs2)C(=O)c2ccc(OCC(C)C)cc2)cc1
  VDR inh: 5%

O=C(CSc1c2c(nc3ccc(Cl)cc13)CCCC2)N1CCN(c2ccc(Cl)cc2)CC1
  VDR inh: -25%

O=C(C1CCCN(Cc2ccccc2)C1)N1CCCCC1 (configuration not stated)
  VDR inh: -2%

N#Cc1ccc(OCC(=O)NCCc2ccccn2)cc1
  VDR inh: -1%

O=Cc1ccccc1-c1cn(CCCOCc2ccccc2)nn1
  VDR inh: -15%

CC(C)c1ccc(C2N3CC4([N+](=O)[O-])CN2CC([N+](=O)[O-])(C3)C4(C)C)cc1 (configuration not stated)
  VDR inh: -4%

COc1ccc(C2(CNC(=O)CCC(=O)O)CCCC2)cc1OC
  VDR inh: -1%

CC(C)(C)c1ccc(OCC(=O)O)cc1
  VDR inh: -9%

Cc1cc(C)c[n+](-c2nc([O-])sc2C=O)c1
  VDR inh: 1%

Cc1cc(C)cc(NC(=O)CSc2ccccc2)c1
  VDR inh: 4%

CCOC(=O)c1cc(-c2ccccc2)nn1-c1ccccn1
  VDR inh: -12%

CCC(CO)Oc1cc(NCc2ccc(C(F)(F)F)cc2)c2ncn(C(C)C)c2c1 (configuration not stated)
  VDR inh: -12%

O=C(O)c1cc(-n2[nH]c(=O)c3ccccc3c2=O)ccc1Cl
  VDR inh: 14%

CCCc1nc2oc3c(NCCN4CCOCC4)ncnc3c2c2c1CCCC2
  VDR inh: -8%

COc1ccc(NC(=O)CC2SC(=NCC3CCCO3)NC2=O)c([N+](=O)[O-])c1 (configuration not stated)
  VDR inh: 2%

c1ccc(OCCOCCSc2ncccn2)cc1
  VDR inh: 7%

N#Cc1ccccc1COC(=O)CCC(=O)c1cccs1
  VDR inh: 2%

C[C@@H]1C2CC(C/C2=N\NC(=O)c2ccncc2)C1(C)C (some centres not stated)
  VDR inh: -7%

COc1cc(/C=N/Nc2nc3ccccc3[nH]2)ccc1O
  VDR inh: -7%

C[C@H](CO)N1C[C@H](C)[C@H](CN(C)S(=O)(=O)c2cccs2)Oc2ccc(NC(=O)Nc3ccc4c(c3)OCO4)cc2CC1=O
  VDR inh: -7%

CCOc1ccc(OCC(=O)NCCS(=O)(=O)N2CCN(c3ccc(F)cc3)CC2)cc1
  VDR inh: 2%&16%

CC(NC(=O)NNC(N)=S)(C(F)(F)F)C(F)(F)F
  VDR inh: -10%

O=C(C1c2ccccc2Oc2ccccc21)N1CCN(c2ccc(Cl)cc2)CC1
  VDR inh: ?

CCCCOC(=O)COc1ccc(Cl)cc1Cl
  VDR inh: -10%

CCCCCCC(=O)Nc1ccc2nc3c(=O)n(C)c(=O)n(C)c3nc2c1C
  VDR inh: 1%

Oc1ccc(Nc2nc(-c3ccccc3O)nc3ccccc23)cc1
  VDR inh: -1%

Cc1cc(C)cc(OCC(=O)Nc2ccc3c(c2)C(=O)c2ccccc2C3=O)c1
  VDR inh: 0%

Cc1ccc(S(=O)(=O)N2CC3(C)CN(S(=O)(=O)c4ccc(C)cc4)CC(C)(C2)C3=O)cc1
  VDR inh: 7%

Cc1cc(=O)n2nc(N3CCCC(C(=O)NCCc4ccc(Cl)cc4)C3)sc2n1 (configuration not stated)
  VDR inh: -6%

O=C(Nc1ccc2ccccc2c1)/C(=C/c1cccc(Br)c1)NC(=O)c1ccco1
  VDR inh: -12%

CC1(C)CC2CC(C)(CN2CC(O)COc2ccccc2)C1 (configuration not stated)
  VDR inh: 0%

COc1cccc(Oc2ccc(C(F)(F)F)cc2NC(=O)C2=COCCO2)c1
  VDR inh: 0%

COc1cc(C(=O)OCC(=O)NC2CCCCC2)cc2c1OCCO2
  VDR inh: 4%

Cc1ccc(-n2nnnc2SCC(=O)NCCc2ccccc2)cc1C
  VDR inh: 2%

COc1cc(C(=O)Nc2ccc(-c3nc4cc(C)c(C)cc4o3)cc2)cc(OC)c1OC
  VDR inh: -5%

COc1cccc(C(=O)NCc2cn3cccc(C)c3n2)c1
  VDR inh: 7%

CCCCn1c(=N)n(CC(=O)c2ccco2)c2ccccc21
  VDR inh: 15%

O=C(c1csc2c1CCCC2)N1CCN(c2cccc(C(F)(F)F)c2)CC1
  VDR inh: -13%

O=C(NCc1ccccc1)c1ccc(C(=O)NCc2ccccc2)cc1
  VDR inh: 0%

Cn1nnnc1CCOCCc1nnnn1C
  VDR inh: -10%

O=C(/C=C/NNC(=O)c1ccccc1)c1ccccc1
  VDR inh: -21%

Some of these compounds in order of their number in VDR inh, rising:
O=C(/C=C/NNC(=O)c1ccccc1)c1ccccc1
  VDR inh: -21%

O=C(c1csc2c1CCCC2)N1CCN(c2cccc(C(F)(F)F)c2)CC1
  VDR inh: -13%

Cn1nnnc1CCOCCc1nnnn1C
  VDR inh: -10%

COc1cc(C(=O)Nc2ccc(-c3nc4cc(C)c(C)cc4o3)cc2)cc(OC)c1OC
  VDR inh: -5%

COc1cccc(Oc2ccc(C(F)(F)F)cc2NC(=O)C2=COCCO2)c1
  VDR inh: 0%

Cc1ccc(-n2nnnc2SCC(=O)NCCc2ccccc2)cc1C
  VDR inh: 2%

New compounds follow.
COCCn1c(-c2ccccc2)csc1=Nc1cccnc1
  VDR inh: 19%

CS(=O)(=O)Cc1ccc(C(=O)NCC2(N3CCCCC3)CCCCC2)cc1
  VDR inh: -4%

CC(=O)C1CCC2C3CC(C)C4=CC(=O)CCC4(C)C3C(=O)CC12C (configuration not stated)
  VDR inh: 8%

CCOC(=O)c1c(NC(=O)CSc2nc(-c3ccc(OC)cc3)cc(C(F)(F)F)n2)sc(C)c1C
  VDR inh: 79µM*

COc1cc(OC)cc(C(=O)NCCCCc2ccccc2)c1
  VDR inh: 3%

Cc1ccc(NC(=O)CSc2nc3c(cc2C#N)C(=O)CCC3)cc1S(=O)(=O)N(C)C
  VDR inh: -9%

CCC(=O)N1c2ccc(S(=O)(=O)CCC(=O)Nc3nccs3)cc2CC1C (configuration not stated)
  VDR inh: 14%

COc1ccc(CSC2=CS(=O)(=O)c3ccccc3N2)cc1
  VDR inh: -9%

CCOC(=O)N1CCC(Nc2c(NCCN3CCN(Cc4ccccc4)CC3)c(=O)c2=O)CC1
  VDR inh: 2%

CC(=O)c1ccc(NC(=O)CN(C)CC(=O)Nc2cccc(F)c2)cc1
  VDR inh: -5%

CC1CN(c2ccc(Cl)cc2)c2nc3c(c(=O)[nH]c(=O)n3C)n2C1 (configuration not stated)
  VDR inh: -7%

COc1ccc([C@H]2C(C(=O)O)=C[C@@H](CC3CCCC3)N2S(=O)(=O)c2ccc(C)cc2)cc1OC
  VDR inh: 1%

COc1cccc(CNCCNC(=O)c2ccco2)c1OC
  VDR inh: -13%

COc1ccc2[nH]c(=O)c(CN(C(C)=O)c3cccc(C)c3)cc2c1
  VDR inh: 3%

Cc1nc2nc(C)c(CCC(=O)N3CCc4ccccc43)c(C)n2n1
  VDR inh: -6%

N#Cc1ccc(C(c2nnnn2C2CCCC2)N2CCC(Cc3ccccc3)CC2)cc1 (configuration not stated)
  VDR inh: 10%

COCCCNC(=O)C1C2C=CC3(CN(Cc4ccc(C)cc4)C(=O)C13)O2 (configuration not stated)
  VDR inh: -5%

CC1(CCc2ccccc2)NC(=O)N(CC(=O)N2CCCCCC2)C1=O (configuration not stated)
  VDR inh: -8%

Cc1cc(C)c(Cn2c3ccccc3c3cnn(CC(=O)NC4CCC(C)CC4)c(=O)c32)c(C)c1 (configuration not stated)
  VDR inh: 0%

Cc1ccc(C)c2[nH]c(=O)c(CN(CC3CCCO3)S(=O)(=O)c3ccc4c(c3)OCCO4)cc12 (configuration not stated)
  VDR inh: 1%

CCOC(=O)c1ccc(NC(=O)CSCC(=O)OCC(=O)c2ccccc2)cc1
  VDR inh: -2%

N#CCCCSc1nnc(CSc2nc3ccccc3s2)n1-c1ccccc1
  VDR inh: -6%

O=C(c1ccc(COCC(F)(F)F)o1)N1CCCC1
  VDR inh: -4%

CNC(=O)c1oc(-c2ccccc2)nc1C
  VDR inh: 4%

O=C(Nc1cccc(-c2nc3ccccc3[nH]2)c1)c1ccccc1F
  VDR inh: 13%

Cc1cccc(C)c1-n1nnnc1SCC(=O)c1c(N)n(C2CC2)c(=O)[nH]c1=O
  VDR inh: 17%

COC(C[C@@H]1O[C@H]1C(=O)[C@@H](C)OCc1ccccc1)OC
  VDR inh: 2%

Cc1ccc(S(=O)(=O)Nc2ccc(-n3cnnn3)cc2)cc1
  VDR inh: 34%[activator]

O=C(N/N=C/c1cc(Cl)cc([N+](=O)[O-])c1O)c1cc(-c2ccccn2)nc2ccccc12
  VDR inh: 3%

CCc1sc(C(=O)NCc2ccccc2)cc1C
  VDR inh: -4%

Brc1cccc(OCCn2ccnc2)c1
  VDR inh: -12%

CCCC(c1nnnn1C1CCCCC1)N1CCN(C2CCCC2)CC1 (configuration not stated)
  VDR inh: 0%

CN(Cc1ccccc1)S(=O)(=O)c1ccc(Cl)c(C(=O)NCc2ccncc2)c1
  VDR inh: -1%

O=S(=O)(NCc1ccc2c(c1)OCO2)c1cccc(S(=O)(=O)N2CCOCC2)c1
  VDR inh: -11%

COc1ccc(NC(=O)N2CCc3c(sc4c3CCCC4)C2c2ccccc2OC)cc1 (configuration not stated)
  VDR inh: 10%

CN(Cc1ccno1)Cc1cn(Cc2ccccc2)nc1-c1ccc2c(c1)OCO2
  VDR inh: -1%

CCSc1cnn(-c2ccccc2)c(=O)c1Cl
  VDR inh: -11%

Cc1ccc(CN2CCN(/N=C\C=C\c3ccccc3)CC2)cc1
  VDR inh: 7%

COc1ccc(NC(=O)CC2C(=O)N(c3ccc(OC)cc3)C(=O)N2C(C)C)cc1 (configuration not stated)
  VDR inh: 5%

CCOC(=O)C1CCN(C(=O)Nc2cccc(OC)c2)CC1
  VDR inh: 2%
